Cruzain Triton: cruzain (T. cruzi) inhibition with detergent; purified cruzain, Z-FR-AMC fluorescence, 0.01% Triton; Potency, µM, inactives show max response, negative = inhibition, hits mostly inhibitors; hit rate 0.43% among 200,000; AID 1478; active = well fitted curve in the direction sought with a large enough effect; inconclusive = small, poorly fitted or top-dose-only effect, or another doubt; inactive = no such curve, though single readings can be large; an effect the other way counts as inactive or inconclusive;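 also: plate controls were neutral wells for no effect and buffer without enzyme for full effect; nearly all actives have a fitted effect of over 40% in size; top concentration of the series not given in the record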
Target sequence (P25779 123-467 limits assumed): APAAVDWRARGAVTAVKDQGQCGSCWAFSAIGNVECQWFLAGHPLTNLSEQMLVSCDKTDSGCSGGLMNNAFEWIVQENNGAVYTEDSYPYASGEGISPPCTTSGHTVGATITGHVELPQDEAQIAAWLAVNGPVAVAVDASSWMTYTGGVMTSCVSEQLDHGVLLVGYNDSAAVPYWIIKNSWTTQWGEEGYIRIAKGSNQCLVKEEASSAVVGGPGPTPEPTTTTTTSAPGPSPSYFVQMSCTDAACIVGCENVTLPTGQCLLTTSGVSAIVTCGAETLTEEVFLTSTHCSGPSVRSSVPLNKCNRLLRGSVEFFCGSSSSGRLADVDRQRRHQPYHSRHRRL
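Steps: dispense cruzain (1.5 nM final) in acetate buffer pH 5.5 with DTT and 0.01% Triton X-100; pin-transfer compounds; incubate 15 min RT; add Z-FR-AMC (2 uM final); read fluorescence every 30 s, using the 60 s intensity change.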
SARS PLP yeast: inhibitors of SARS-CoV papain-like protease in yeast; S. cerevisiae expressing SARS-CoV PLpro, growth rescue; control for the full effect not named in the record; Potency, µM (titrated, usually from 32.9 µM), inactives show at the highest dose activity, positive = growth rescue; hit rate 0.19% among 330,000; AID 485353; also: 0% is about no effect; nearly all actives have a fitted effect of over 55% in size; growth read by luminescence after 48 h
Cruzain inh noDet: inhibitors of Trypanosoma cruzi cruzain without detergent; purified cruzain, Z-FR-AMC fluorescence, no detergent; Potency, µM, for the others: max response, negative = inhibition, most hits filed as inhibitors; hit rate 2.3% among 200,000; active = well fitted curve in the direction sought with a large enough effect; inconclusive = small, poorly fitted or top-dose-only effect, or another doubt; inactive = no such curve, though single readings can be large; an effect the other way counts as inactive or inconclusive;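 also: plate controls were enzyme without inhibitor for no effect and buffer without enzyme for full effect; nearly all actives have a fitted effect of over 40% in size; top concentration of the series not given in the record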
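Purified cruzain at 1.5 nM, pre-incubated 15 min with compound at room temperature in 100 mM sodium acetate pH 5.5, 5 mM DTT, 0.00005% Triton X-100. Reaction started with 2 uM Z-FR-AMC; AMC fluorescence increase over 60 s gives rate.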
Lassa entry inh: Lassa virus entry inhibition; Lassa virus pseudotype entry inhibition, cell reporter; control for the full effect not named in the record; Potency, µM (highest dose often 37.9 µM), for inactives: top-dose activity change, negative = inhibition, most hits filed as inhibitors; hit rate 1.2% among 300,000; active means well fitted inhibition curve with a large enough effect; inconclusive means small, poorly fitted or top-dose-only effect, or effect the other way; inactive means flat fitted curve, though single readings scatter; tested in HEK293 cells; also: % is scaled to controls: 0 for no effect and ±100 for the full control effect; nearly all actives have a fitted effect of over 50% in size; luciferase read-out
RE007 growth inh: less growth of the S. pombe RE007 Vpr strain; Potency, µM (titrated, usually from 92.2 µM), inactives show top-dose activity change, negative = less growth; AID 651644; S. pombe RE007 Vpr strain, BacTiter-Glo ATP luminescence, 24 h; control for the full effect not named in the record; hit rate 0.21% among 360,000; active = well fitted falling curve with a large enough effect; inconclusive = small, poorly fitted or top-dose-only effect; inactive = no such curve, though single readings can be large or run the other way;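 also: % is scaled to controls: 0 for no effect and ±100 for the full control effect; nearly all actives have a fitted effect of over 50% in size; the assay follows cell death caused by Vpr and the record does not say whether a fall means rescue or toxicity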
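Fission yeast strain RE007, carrying one chromosomally integrated HIV-1 vpr copy, was seeded at OD 0.01 in PMG+AL medium with 23 nL pinned compound. After 24 h at 30 °C and 99% humidity, viability was read by BacTiter-Glo luminescence.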
StopGo reporter: FMDV 2A StopGo reporter, luciferase signal. human cells with a luciferase reporter of 2A StopGo recoding; control for the full effect not named in the record. Potency, µM (doses to about 57.9 µM), for inactives: at the top dose signal change, negative = less light. hit rate 1.2% among 410,000. AID 1159524; active = well fitted falling curve with a large enough effect; inconclusive = small, poorly fitted or top-dose-only effect; inactive = no such curve, though single readings can be large or run the other way; tested in HEK293T cells; also: % is scaled to controls: 0 for no effect and ±100 for the full control effect; nearly all actives have a fitted effect of over 45% in size; luciferase light after 4 h
NS1 function inh: blocks influenza NS1 protein function | AID 2326 | hit rate 0.4% among 270,000 | Potency, µM (top dose mostly 46.1 µM), for the others: at the highest dose activity, positive = more growth | S. cerevisiae slowed by influenza A NS1, growth recovery by OD600; also: actives are rising curves; nearly all actives have a fitted effect of over 50% in size
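Compounds were scored for reversing the slow growth caused by influenza A NS1 in S. cerevisiae, measured by optical density at 600 nm. Assay medium contained 2% galactose at pH 6.0; NS1-free yeast of the same strain were the positive control.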
MARV entry inh: blocks Marburg virus binding to or entry into cells; Marburg virus pseudotyped entry inhibition, cell reporter; control for the full effect not named in the record; about a third of the inactives were read at about 46 µM; Potency, µM (series often up to 37.8 µM), for the others: at the highest dose activity change, negative = inhibition, hits mostly inhibitors; hit rate 1.8% among 300,000; AID 540276; active = well fitted inhibition curve with a large enough effect; inconclusive = small, poorly fitted or top-dose-only effect, or effect the other way; inactive = flat fitted curve, though single readings scatter; tested in HEK293 cells; about a fifth of its hits are not listed in these tables; also: % is scaled to controls: 0 for no effect and ±100 for the full control effect; luciferase read-out
Numbers without * were called inactive; [ ] = remark or other dose. Unless noted, calls follow the shape of the dose curve; as a rule, active means well fitted rising curve with a large enough effect; inconclusive means small, poorly fitted or top-dose-only effect; inactive means no such curve, though single readings can be large or run the other way. Potency is read from the fitted curve at half-maximal effect.

Screening COc1ccc(NC2=C(C(C)=O)C(c3ccccc3)C(C(C)=O)C(C)(O)C2)cc1 (centres undefined) returned SARS PLP yeast 0%, Lassa entry inh 9%[46.1 µM], RE007 growth inh 4%, StopGo reporter -10%, NS1 function inh -7% and MARV entry inh inconclusive.
For O=C(Nc1cc(-c2ccccc2F)nn1-c1ccccc1)c1ccccc1Br the results were Cruzain Triton -0.5%, Cruzain inh noDet 32µM*, Lassa entry inh -20%[46.1 µM] and StopGo reporter -16%.
Screening COc1cc2c(cc1OC)C1=CC(=O)C(=O)N1C(C)(C)C2 returned SARS PLP yeast 1%, Lassa entry inh 1%, RE007 growth inh -23%, StopGo reporter 18%, NS1 function inh 7% and MARV entry inh -8%[46.1 µM].
For Cc1cccc(C(=O)NC2CCN(CC(=O)NCc3ccccc3F)CC2)c1 the results were SARS PLP yeast 7%, Lassa entry inh -2%[46.1 µM], RE007 growth inh -1%, StopGo reporter -16%, NS1 function inh -3% and MARV entry inh inconclusive.
For Cc1ccn2cc(-c3cccc(NC(=O)c4ccccc4)c3)nc2c1 the results were Cruzain Triton -5.3%, SARS PLP yeast 3%, Cruzain inh noDet 4%, Lassa entry inh 5%, RE007 growth inh 3%, StopGo reporter -11%, NS1 function inh -9% and MARV entry inh -19%.
Screening O=C(CN(C(=O)CNC(=O)c1ccco1)c1ccc2c(c1)OCCO2)NC1CCCC1 returned SARS PLP yeast 1%, RE007 growth inh -7%, StopGo reporter 12% and NS1 function inh 2%.
For Cc1ccc2c(c1)C1CN(C)CCC1N2C(=O)Cc1cccs1 (centres undefined) the results were Cruzain Triton 3.0%, SARS PLP yeast 0%, Cruzain inh noDet -1%, Lassa entry inh -18%, RE007 growth inh 12%, NS1 function inh -6% and MARV entry inh -19%.
`O=C1OC(c2ccccc2)C2(CCCC2)C(=O)C12CCCC2` (centres undefined) gave Cruzain Triton 1.4%, SARS PLP yeast 5%, Cruzain inh noDet -10%, Lassa entry inh inconclusive, RE007 growth inh 3%, StopGo reporter -12%, NS1 function inh -5% and MARV entry inh -16%.
Screening Cc1nc2sccn2c(=O)c1S(=O)(=O)NCCc1ccccc1 returned SARS PLP yeast -9%, RE007 growth inh 5%, StopGo reporter 12% and NS1 function inh 9%.
`O=C1OCCC1Sc1nnc(-c2ccc(F)cc2)n1Cc1ccccc1` (centres undefined) gave Cruzain Triton -2.1%, SARS PLP yeast 13%, Cruzain inh noDet 4%, Lassa entry inh -18%, StopGo reporter -18%, NS1 function inh 3% and MARV entry inh -31%.
For O=C(NCC1CCCO1)/C(=C/c1ccccc1F)NC(=O)c1ccccc1 (centres undefined) the results were SARS PLP yeast 0%, Lassa entry inh 20%, RE007 growth inh -1%, StopGo reporter 6%, NS1 function inh 4% and MARV entry inh -2%[46.1 µM].
Cc1ccc(OCC(=O)NCCCNC(=O)c2ccco2)cc1 was read as SARS PLP yeast 1%, Lassa entry inh -28%[46.1 µM], RE007 growth inh 20%, StopGo reporter 1%, NS1 function inh 26% and MARV entry inh 1%[46.1 µM].
COc1ccc(C(=O)CSc2nccn2C)c(OC)c1 was read as SARS PLP yeast 3%, RE007 growth inh 2%, StopGo reporter 52%[activator] and NS1 function inh 11%.
Screening CCOc1ccc(-n2ccnc2SCC(=O)Nc2nnc(CC)s2)cc1 returned Cruzain Triton 7.2%, SARS PLP yeast -13%, Cruzain inh noDet 9%, Lassa entry inh 3%, RE007 growth inh 11%, StopGo reporter inconclusive, NS1 function inh -35% and MARV entry inh inconclusive.
Cc1ccccc1CC(=O)Nc1sc(C(C)C)cc1C(=O)N1CCOCC1 was read as SARS PLP yeast -4%, RE007 growth inh 2%, StopGo reporter 38%[activator] and NS1 function inh -3%.
`O=C(NCCc1c[nH]c2ccccc12)c1ccc(Br)o1` gave SARS PLP yeast -8%, Lassa entry inh 1%, RE007 growth inh -3%, StopGo reporter 22% and MARV entry inh 14%.
`O=C(c1cccc2c1-c1ccccc1C2)N1CCCCC1` gave SARS PLP yeast -2%, Lassa entry inh -13%, RE007 growth inh -1%, StopGo reporter -5%, NS1 function inh -3% and MARV entry inh -9%[46.1 µM].
`N=c1c(C(=O)NC2CCCCC2)cc2c(=O)n3ccccc3nc2n1Cc1ccc(F)cc1` gave SARS PLP yeast 0%, RE007 growth inh -5%, StopGo reporter -16% and NS1 function inh 22%.
Screening COCCn1c(CNC(=O)c2cccc(C)c2)nc2cccnc21 returned Cruzain Triton -2.0%, Cruzain inh noDet -13%, Lassa entry inh 1%[46.1 µM] and StopGo reporter -9%.
`CCOC(=O)CNC(=O)CSc1nnc(-c2ccncc2)n1-c1ccc(Cl)cc1` gave Cruzain Triton -0.3%, SARS PLP yeast 3%, Cruzain inh noDet -7%, Lassa entry inh -10%, RE007 growth inh 1%[3.69 µM], StopGo reporter -5%, NS1 function inh 19% and MARV entry inh -11%.
CCOc1ccc(OCCC(=O)N(CCCOC)c2c(N)n(Cc3ccccc3)c(=O)[nH]c2=O)cc1 was read as SARS PLP yeast inconclusive, Lassa entry inh -22%, RE007 growth inh -23%, StopGo reporter 0% and MARV entry inh 12%[46.1 µM].
Screening CCN(CC)S(=O)(=O)c1ccc(Oc2ccccc2)c(N)c1 returned SARS PLP yeast -5%, Lassa entry inh -24%[46.1 µM], RE007 growth inh 13%, StopGo reporter -15% and MARV entry inh inconclusive.
`Cc1cccc(-c2nnc(SCC(=O)N3CCCc4ccccc43)o2)c1` gave Cruzain Triton -5.5%, Cruzain inh noDet -6%, Lassa entry inh 0%[46.1 µM], StopGo reporter 7% and MARV entry inh 2%[46.1 µM].
O=C(NCC1CCCO1)c1ccc(C(=O)NCC2CCCO2)cc1 (centres undefined) was read as Cruzain Triton 0.9%, SARS PLP yeast 0%, Cruzain inh noDet -6%, Lassa entry inh -2%, RE007 growth inh -12%, StopGo reporter -1%, NS1 function inh 0% and MARV entry inh 16%.
`O=C1C2C(C(=O)N1/N=C/c1ccco1)C1C=CC2C12CC2` (centres undefined) gave Cruzain Triton 6.7%, SARS PLP yeast 5%, Cruzain inh noDet 4%, Lassa entry inh -2%, RE007 growth inh 4%, StopGo reporter 28%, NS1 function inh 7% and MARV entry inh -1%.
CCOC(=O)CC(NC(=O)Cn1nnc(-c2ccc(Cl)cc2)n1)c1ccc(OC)cc1 (centres undefined) was read as Cruzain Triton -0.3%, Cruzain inh noDet 9%, Lassa entry inh 0%[46.1 µM], StopGo reporter inconclusive and MARV entry inh -26%[46.1 µM].
COc1ccccc1C(CC(N)=O)c1ccco1 (centres undefined) was read as Cruzain Triton 2.5%, SARS PLP yeast 22%, Cruzain inh noDet -7%, Lassa entry inh 1%, RE007 growth inh 21%, StopGo reporter 0%, NS1 function inh 6% and MARV entry inh -1%.
For O=C(OCC(=O)N1CCCCC1)c1cccs1 the results were SARS PLP yeast 0%, Lassa entry inh inconclusive, RE007 growth inh 2%, StopGo reporter -17% and MARV entry inh inconclusive.
Nc1nonc1C(=O)NCCNCc1cc(Br)ccc1OCc1ccc(F)cc1 was read as Cruzain Triton -5.6%, SARS PLP yeast -1%, Cruzain inh noDet -7%, Lassa entry inh -26%, RE007 growth inh -1%[3.69 µM], StopGo reporter inconclusive, NS1 function inh 0% and MARV entry inh inconclusive.
For O=c1c2[nH]c3cccc(Cl)c3c2ncn1Cc1ccco1 the results were SARS PLP yeast -1%, Lassa entry inh 9%, RE007 growth inh -1%, StopGo reporter -5%, NS1 function inh 4% and MARV entry inh 21%[46.1 µM].
For CCN(CC)CCCNC(=O)CN1C(=O)CCn2nc(-c3cn(C)c4ccccc34)cc21 the results were Cruzain Triton -0.9%, Cruzain inh noDet -1%, Lassa entry inh 16%[46.1 µM] and StopGo reporter 8%.
Screening CCNc1nc(Oc2ccc(C(=O)OC)cc2)nc(SC)n1 returned Cruzain Triton -2.4%, SARS PLP yeast -4%, Cruzain inh noDet -7%, Lassa entry inh 5%, RE007 growth inh inconclusive, StopGo reporter 4%, NS1 function inh -11% and MARV entry inh -4%.
`Cc1ccccc1NC(=O)CSc1nc(-c2cccs2)nc2cc(=O)[nH]n12` gave Cruzain Triton 0.8%, SARS PLP yeast -3%, Cruzain inh noDet 1%, Lassa entry inh -17%[46.1 µM] and StopGo reporter -13%.
Screening COc1ccc(-c2cc(C(F)(F)F)nc(NCCc3ccccc3)n2)cc1OC returned Cruzain Triton -5.0%, Cruzain inh noDet 0%, Lassa entry inh 4%[46.1 µM], StopGo reporter -9% and MARV entry inh -17%[46.1 µM].
Screening Cc1ccc(C)c(NC(=S)Nc2ncccc2C)c1 returned SARS PLP yeast -1%, Lassa entry inh inconclusive, RE007 growth inh 6%, StopGo reporter 75%[activator], NS1 function inh -75% and MARV entry inh -16%[46.1 µM].
Screening CCOC(=O)c1c(C)[nH]c(C)c1C(=O)COC(=O)c1cc2ccccc2cc1O returned Cruzain Triton -13%, SARS PLP yeast -49%, Cruzain inh noDet 4%, Lassa entry inh 8%[46.1 µM], RE007 growth inh -5%, StopGo reporter -6%, NS1 function inh 1% and MARV entry inh inconclusive.
For Cc1ccc(SCCC(=O)Nc2cccc(N(C)S(C)(=O)=O)c2)cc1 the results were Cruzain Triton 0.1%, SARS PLP yeast -7%, Cruzain inh noDet -3%, Lassa entry inh 11%, RE007 growth inh 2%, StopGo reporter -27%, NS1 function inh -56% and MARV entry inh inconclusive.
`Cc1ccc(C)n1-c1ccc(N2CCOCC2)nc1` gave Cruzain Triton -11%, SARS PLP yeast -3%, Cruzain inh noDet -23%, Lassa entry inh -29%, RE007 growth inh -19%, StopGo reporter -25%, NS1 function inh 17% and MARV entry inh inconclusive.
For COc1ccc(NS(=O)(=O)c2ccc3c(c2)CCN3C(=O)C2CC2)cc1OC the results were Cruzain Triton -3.4%, Cruzain inh noDet 0%, Lassa entry inh inconclusive, StopGo reporter -5% and MARV entry inh inconclusive.
For COc1ccc(Cn2c(C(=O)O)c(CNCc3ccc(C)o3)c3ccc(OC)cc32)cc1 the results were Cruzain Triton -4.0%, Cruzain inh noDet 6%, Lassa entry inh inconclusive and StopGo reporter -4%.
For CC(NC(=O)CN(c1ccc(Br)cc1)S(C)(=O)=O)c1ccccc1 (centres undefined) the results were SARS PLP yeast 10%, RE007 growth inh -4%, StopGo reporter 2% and NS1 function inh 17%.
